D2 agonist – human D2 receptor agonism in beta-arrestin assay; P14416; AID 624465; hit rate 0.084% among 360,000; DiscoveRx PathHunter D2 beta-arrestin, luminescence, 90 min; 100% = 57 uM dopamine signal; activation, % (no concentration beside the values); in the data active = activation above about 40%; inconclusive = about 15% to 40%; inactive = below about 15%; also: compound concentration not given in the record; the text of the record calls up to 30% inactive
Target sequence (P14416 whole entry, looked up): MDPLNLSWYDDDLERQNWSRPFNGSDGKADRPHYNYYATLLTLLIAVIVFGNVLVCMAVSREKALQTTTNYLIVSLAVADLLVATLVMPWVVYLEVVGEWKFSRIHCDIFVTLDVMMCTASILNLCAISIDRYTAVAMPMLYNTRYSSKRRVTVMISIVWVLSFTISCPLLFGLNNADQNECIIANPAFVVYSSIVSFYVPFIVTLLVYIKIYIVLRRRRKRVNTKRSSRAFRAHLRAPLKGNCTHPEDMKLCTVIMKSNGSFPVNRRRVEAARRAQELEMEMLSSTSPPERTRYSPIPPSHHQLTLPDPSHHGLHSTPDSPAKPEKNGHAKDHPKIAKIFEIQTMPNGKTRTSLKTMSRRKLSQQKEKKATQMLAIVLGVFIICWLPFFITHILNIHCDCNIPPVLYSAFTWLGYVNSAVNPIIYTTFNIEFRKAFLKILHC
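Agonist mode: compounds alone added to overnight-plated D2 PathHunter cells for 90 min at 37 C, with 57 uM final dopamine (EC100) defining full response. Beta-arrestin recruitment detected by chemiluminescent reagent, read after 1 h at ambient temperature.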
PINK1 expr mod – PINK1 expression modulation; Potency, µM (highest dose often 76.6 µM), for the others: top-dose activation (PINK1 increase), most hits filed as activators; PINK1 immunofluorescence, high-content cytometry, 24 h; hit rate 0.2% among 410,000; active = well fitted activation curve with a large enough effect; inconclusive = small, poorly fitted or top-dose-only effect; inactive = flat fitted curve, though single readings scatter; cell line not stated here;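 also: potency is read from the fitted curve at half-maximal effect; % of control where 0% means no effect; nearly all actives have a fitted effect of over 65% in size; a mitochondrial uncoupler was the plate control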
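Cells are seeded, rested 12 hours, then given compound at five concentrations or DMSO for 24 hours. After fixation, blocking and antibody staining, PINK1 amount and mitochondrial localization are scored; CCCP serves as control.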
CtBP-E1A blk – CtBP/E1A binding inhibition. AlphaScreen GST-E1A/His-CtBP binding, 1536-well; stronger effect = lower value; control for the full effect not named in the record. activity change, % (concentration not given with the values). hit rate 0.49% among 340,000. AID 651724; in the data active means activity change below about -65%; inconclusive means about -30% to -65%; inactive means above about -30%; also: % is scaled to controls: 0 for no effect and ±100 for the full control effect
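AlphaScreen with 125 nM GST-E1A and 125 nM His-CtBP (5X stocks) in Tris pH 8.0, 300 mM NaCl, BSA, Tween 20, TCEP. Compounds preincubated 2 h at 37 deg C, then glutathione donor/nickel acceptor beads added for 1 h at 37 deg C in dark.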
TRPV1 potentiator – potentiators of human vanilloid receptor 1 (TRPV1); TRPV1-expressing cells, Fluo-8 calcium influx, capsaicin EC20 potentiation; host cell line not named in the record; control for the full effect not named in the record; potentiation, % at 8.33 µM; hit rate 0.02% among 320,000; active means potentiation above 80%; inconclusive means 30% to 80%; inactive means below 30%; also: 0% is about no effect
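Fluo-8 calcium influx in TRPV1-expressing cells, kinetic read (ex 480/em 520 nm). Compound added and read 3 min for agonist activity, followed by capsaicin at EC20 final and 2 min further read for enhancement.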
D2 PAM – potentiates the human D2 dopamine receptor allosterically. hit rate 0.23% among 360,000. potentiation, % (concentration not given with the values). DiscoveRx D2 beta-arrestin cells, luminescence, 90 min; 100% = 57 uM dopamine signal; active = potentiation of 50% or more; inconclusive = 30% to 50%; inactive = 30% or less;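 also: compound concentration not given in the record; tested on top of an EC20 dose of dopamine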
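PathHunter D2 cells, attached overnight at 37 deg C, received compound in DMSO plus dopamine at EC20 (50 nM final) for 90 min at 37 deg C. Beta-arrestin recruitment was read as luminescence after 1 h with detection reagent at ambient temperature.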
Sfp inh – inhibitors of Bacillus subtilis Sfp phosphopantetheinyl transferase; Q9F4F7; Biochemical Sfp PPTase activity, qHTS; Potency, µM, for inactives: max response, negative = inhibition, hits mostly inhibitors; hit rate 3.5% among 310,000; AID 1490; active = well fitted inhibition curve with a large enough effect; inconclusive = small, poorly fitted or top-dose-only effect, or another doubt; inactive = no such curve, though single readings can be large or run the other way;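 also: the enzyme is Sfp with the accession as filed and its product quenches rhodamine fluorescence; potency is read from the fitted curve at half-maximal effect; 0% = enzyme reaction without inhibitor and -100% = no enzyme wells; top concentration of the series not given in the record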
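After 15 min at room temperature with compound, 15 nM Sfp received 5 uM rhodamine-CoA plus 12.5 uM BHQ-2-ybbR (50 mM Hepes pH 7.6, 10 mM MgCl2). Rate came from the fluorescence difference over 30 min, ex 525/em 598 nm.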
Six1-Eya2 blk – inhibitors of human Six1/Eya2 interaction. activity change, % (concentration not given with the values). AlphaScreen GST-Six1/His-Eya2 binding, biochemical; stronger effect = lower value; control for the full effect not named in the record. hit rate 0.56% among 360,000. Q15475+O00167; in the data active = activity change below about -65%; inconclusive = about -30% to -65%; inactive = above about -30%; also: % is scaled to controls: 0 for no effect and ±100 for the full control effect
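Six1/Eya2 binding was read as AlphaScreen signal after compounds were pinned into GST-Six1 plus His-tagged Eya2 (5X stock 250/500 nM) in pH 8.0 Tris/NaCl/TCEP buffer, beads added, then incubated 1 h, 37 C, dark.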
Numbers without * were called inactive; ? = inconclusive; nt = not tested or not shown; [ ] = another dose, or the depositor's remark.

Field names – A = D2 agonist; B = PINK1 expr mod; C = CtBP-E1A blk; D = TRPV1 potentiator; E = D2 PAM; F = Sfp inh; G = Six1-Eya2 blk
CCOC(=O)N1CCN(CC(=O)N2c3ccccc3CC2C)CC1 (stereo not given)
  A: 0.5; B: 1.8%; C: 5; D: -9; E: -3; F: -6%; G: 8
N/C(=N\OC(=O)CCC1CCCC1)c1cccnc1
  A: -4.4; B: 2.6%; C: -5; D: 0; E: 19; F: 7%; G: 11
O=C(c1ccco1)N1CCN(C(=O)c2ccc(COc3ccc4c(c3)CCC4)o2)CC1
  A: -4.6; B: -1.6%; C: 21; D: -12; E: -5; F: -12%; G: -14
COc1ccc2cc(CCNC(=O)c3cccs3)c(=O)[nH]c2c1
  A: 1.1; B: 0.6%; C: -2; D: ?; E: -1; F: 6%; G: -11
O=C(c1cc(-c2cccnc2)nc2ccccc12)N1CCN(S(=O)(=O)c2ccc(Cl)s2)CC1
  A: -4.6; B: -0.4%; C: 6; D: nt; E: -11; F: nt; G: -9
CC(=O)Nc1ccc(N2CCOCC2)c([N+](=O)[O-])c1
  A: -1.0; B: 0.2%; C: 1; D: 2; E: -11; F: 25%; G: 4
Nc1nc(COc2ccc(F)cc2)nc(N2CCCCC2)n1
  A: -0.9; B: 2.7%; C: 0; D: 9; E: 2; F: 29%; G: 1
Cc1cc(C)c(Cc2c(C)nc3c(C(=O)NCc4ccco4)cnn3c2C)c(C)c1
  A: 3.3; B: 4.5%; C: 0; D: 5; E: -4; F: 56µM*; G: -10
Cc1cc(Cl)nc(Cl)c1C(=O)NCc1ccc(Cl)cc1
  A: 3.3; B: 3.5%; C: 0; D: 9; E: -12; F: 7%; G: 6
COc1ccc(S(=O)(=O)N(CC(=O)NCC2CCCO2)Cc2ccccc2)cc1 (stereo not given)
  A: -2.1; B: 5.0%; C: 13; D: 2; E: -10; F: 11%; G: -4
N#CCCn1cc(C(=O)CN2C(=O)NC3(CCc4ccccc43)C2=O)c2ccccc21 (stereo not given)
  A: 0.2; B: 1.5%; C: 13; D: nt; E: -4; F: nt; G: -4
COc1ccc(NS(=O)(=O)c2cc(NC(=O)CC3CCCC3)ccc2N2CCOCC2)cc1
  A: -7.2; B: 1.9%; C: -17; D: -8; E: 2; F: 25µM*; G: 13
Cc1ccc(C)c(NC(=O)C(Sc2nc3ccc(C)cc3[nH]2)c2ccccc2)c1 (stereo not given)
  A: 0.3; B: ?; C: 1; D: 7; E: -7; F: 42%[activator]; G: -13
Cc1ccc(S(=O)c2ccc(NC(=O)C3CC3)cc2C#N)cc1 (stereo not given)
  A: -1.4; B: 0.2%; C: 9; D: 4; E: -2; F: 17%; G: 8
CCN1CCN(c2cc(C)c3cc(NC(=O)Cc4ccc(OC)c(OC)c4)ccc3n2)CC1
  A: 1.2; B: 4.8%; C: 16; D: 5; E: -7; F: 20%; G: 9

Ten of these compounds, set out differently:
mol,D2 agonist,PINK1 expr mod,CtBP-E1A blk,TRPV1 potentiator,D2 PAM,Sfp inh,Six1-Eya2 blk
N/C(=N\OC(=O)CCC1CCCC1)c1cccnc1,-4.4,2.6%,-5,0,19,7%,11
O=C(c1ccco1)N1CCN(C(=O)c2ccc(COc3ccc4c(c3)CCC4)o2)CC1,-4.6,-1.6%,21,-12,-5,-12%,-14
COc1ccc2cc(CCNC(=O)c3cccs3)c(=O)[nH]c2c1,1.1,0.6%,-2,?,-1,6%,-11
O=C(c1cc(-c2cccnc2)nc2ccccc12)N1CCN(S(=O)(=O)c2ccc(Cl)s2)CC1,-4.6,-0.4%,6,nt,-11,nt,-9
CC(=O)Nc1ccc(N2CCOCC2)c([N+](=O)[O-])c1,-1.0,0.2%,1,2,-11,25%,4
Nc1nc(COc2ccc(F)cc2)nc(N2CCCCC2)n1,-0.9,2.7%,0,9,2,29%,1
Cc1cc(C)c(Cc2c(C)nc3c(C(=O)NCc4ccco4)cnn3c2C)c(C)c1,3.3,4.5%,0,5,-4,56µM*,-10
Cc1cc(Cl)nc(Cl)c1C(=O)NCc1ccc(Cl)cc1,3.3,3.5%,0,9,-12,7%,6
COc1ccc(S(=O)(=O)N(CC(=O)NCC2CCCO2)Cc2ccccc2)cc1 (stereo not given),-2.1,5.0%,13,2,-10,11%,-4
N#CCCn1cc(C(=O)CN2C(=O)NC3(CCc4ccccc43)C2=O)c2ccccc21 (stereo not given),0.2,1.5%,13,nt,-4,nt,-4

(continued)
Field names – A = D2 agonist; B = PINK1 expr mod; C = CtBP-E1A blk; D = TRPV1 potentiator; E = D2 PAM; F = Sfp inh; G = Six1-Eya2 blk
CCOP(=O)(OCC)C(NC(=O)c1cc([N+](=O)[O-])cc([N+](=O)[O-])c1)C(F)(F)F (stereo not given)
  A: ?; B: -3.0%; C: ?; D: 11; E: 15; F: 10%; G: ?
NC1=NC(=O)/C(=C\C=C\c2ccccc2)S1
  A: 6.8; B: -0.3%; C: 4; D: 10; E: 10; F: 11%; G: 10
CCC1(CC)NC(=O)N(CC(=O)OC(C)C(=O)Nc2ccc(Cl)cn2)C1=O (stereo not given)
  A: -2.5; B: -0.1%; C: 5; D: -7; E: 6; F: nt; G: 0
O=C(C1CCC1)N1CCc2cc(S(=O)(=O)NCc3cccnc3)ccc21
  A: 1.6; B: -1.9%; C: -1; D: -5; E: 0; F: 14%; G: 5
Cc1cccc2c1-c1sc(C(=O)NCCCN3CCC(C)CC3)cc1CO2
  A: -0.9; B: -1.0%; C: 14; D: 0; E: -27; F: -16%; G: 15
CC1=NNC(=O)C1CC(=O)N/N=C/c1ccc(C)o1 (stereo not given)
  A: -5.1; B: 1.3%; C: 6; D: -10; E: -5; F: 3%; G: 3
O=C1N(Cc2ccccc2)c2ccc(Cl)cc2C12OCCO2
  A: 0.3; B: 1.3%; C: 16; D: ?; E: -1; F: 11%; G: 2
CC1CCCCC1NC(=O)Cn1c(=O)cnc2ccccc21 (stereo not given)
  A: 1.6; B: 0.9%; C: 6; D: nt; E: 3; F: nt; G: 0
CCCc1nn(C)c2c(=O)[nH]c(-c3cc(S(=O)(=O)Nc4ccc(NC(C)=O)cc4)ccc3OCC)nc12
  A: -2.9; B: 3.2%; C: nt; D: 0; E: -15; F: 12%; G: -18
CSc1ccc(Cl)c(C(=O)Nc2ccc(OCC(N)=O)cc2)c1
  A: 1.1; B: -3.5%[38.3 µM]; C: -7; D: -13; E: -6; F: 14%; G: -4
COc1ccccc1/C=C/C(=O)N1CCCC1
  A: -6.1; B: 2.2%; C: 7; D: ?; E: 0; F: -3%; G: 3
Cc1[nH]n(-c2ccccc2)c(=O)c1C=Nc1cccc(F)c1
  A: -1.4; B: -0.3%; C: -29; D: -10; E: -6; F: 12%; G: 2
COc1ccc(S(=O)(=O)N2CCN(C(=O)c3ccco3)CC2)cc1OC
  A: 0.4; B: 0.0%[38.3 µM]; C: -5; D: -2; E: 7; F: 18%; G: -1
C[C@@H]1CN([C@H](C)CO)C(=O)CCCn2cc(nn2)CO[C@H]1CN(C)C(=O)c1ccc2ccn(C)c2c1
  A: -5.8; B: 0.9%; C: 3; D: nt; E: -13; F: nt; G: 0
CCCc1cc(=O)n2nc(N3CCC(C(=O)NCc4ccco4)CC3)sc2n1
  A: 1.5; B: -0.5%; C: 0; D: 16; E: -3; F: 5%; G: -2

Going on with the list:
Sequence of screens: D2 agonist	PINK1 expr mod	CtBP-E1A blk	TRPV1 potentiator	D2 PAM	Sfp inh	Six1-Eya2 blk
> COc1ccc(C/C(C)=N/NC(=O)c2ccc(C)cc2C)cc1
    -3.3	-0.5%	9	0	-5	9%	8
> Nc1cc2c(cc1O)CCCC2
    -0.9	0.8%	1	11	4	4.5µM*	-3
> Cc1ccc(C)c2[nH]c(=O)c(CCNC(=O)c3ccc(S(=O)(=O)N4CCOCC4)cc3)cc12
    2.1	-1.0%	1	1	-7	9%	-15
> Cc1ccsc1/C=C(\CC(=O)O)c1nc2ccccc2o1
    -2.7	0.5%	-6	12	0	18%	-1
> CC1(c2ccccc2)NC(=O)N(CC(=O)N2CCN(S(=O)(=O)c3cccc([N+](=O)[O-])c3)CC2)C1=O (stereo not given)
    5.3	-0.5%	-3	0	25	nt	-1
> COc1ccccc1-c1cnc(C(O)c2cc(C)c(OC)c(C)c2)[nH]1 (stereo not given)
    -2.3	9.5%	-7	nt	-5	nt	-10
> CCOC(=O)c1oc2cccc(OC(C)=O)c2c1C
    -5.9	-1.0%	4	-17	3	-4%	-11
> COc1ccccc1N1CCN(S(C)(=O)=O)CC1
    -1.6	-2.4%[38.3 µM]	3	3	-1	9%	3
> OCCC1CN(Cc2cccn2-c2nccs2)CCN1Cc1ccc(F)c(F)c1 (stereo not given)
    -5.5	0.4%	1	13	-9	11%	-15
> N#CCCCc1cn(-c2nc3ccccc3s2)nn1
    nt	-0.1%	2	nt	nt	nt	-6
> O=C(COC(=O)/C=C/c1cccc(Cl)c1)NCCc1ccccc1
    0.6	1.2%	1	1	-1	3%	1
> O=C(CSc1nnc(NC(=O)C2CC(=O)N(c3ccccc3)C2)s1)NC1CCCC1 (stereo not given)
    -2.1	-2.6%	-11	-1	-12	9%	-22
> CCCOc1ccc(OC(=O)Cc2ccc(OC)c(S(=O)(=O)N3CCOCC3)c2)cc1
    -5.5	-0.3%	-4	-2	-17	nt	3
> COC(=O)Cn1cnc2c(cnn2-c2ccccc2)c1=O
    -3.7	-0.3%	-13	-1	-4	19%	6
> CC(=O)NC(c1ccccc1)c1nc(-c2cccc(C(C)C)c2)cs1 (stereo not given)
    1.9	2.0%	3	nt	0	nt	-3
> COc1ccc(C(C)(O)c2nc(-c3ccc4ccccc4c3)cs2)cc1 (stereo not given)
    -4.9	8.9%	-1	nt	-4	nt	-3
> COc1cc(CCC(N)c2cccc(O)c2)cc(OC)c1OC (stereo not given)
    -4.8	-4.4%	-3	nt	-16	nt	1
> CC(=O)Nc1ccc(S(=O)(=O)Oc2ccc(/C=C3\SC(N)=NC3=O)cc2)cc1
    -1.2	1.4%	nt	-17	1	10%	2
> CCN(CC)c1ccc(/C=C/C(=O)c2cccnc2)cc1
    2.5	2.4%	nt	3	1	11%	6
> COC(=O)c1ccccc1NC(=O)CN1CCN(C(=O)c2ccco2)CC1
    2.2	0.4%	-7	-10	-10	5%	3
> COc1cc(OC)cc(C(=O)N[C@H](C(=O)OCC(=O)NC(=O)c2cccn2C)C(C)C)c1
    -5.5	1.3%	-4	5	-7	20%	0
> COc1ccc(N2CCC(N3CCN(C)C(CCO)C3)CC2)cc1 (stereo not given)
    -5.7	2.8%	11	9	0	-5%	3

Assay outcomes deposited in PubChem BioAssay by National Center for Advancing Translational Sciences (NCATS).
